# Screens from PubChem.
# PV pol inh = inhibitors of poliovirus RNA polymerase binding and polymerization. % elongation, % (compound at 16.7 µg/mL). poliovirus polymerase elongation, fluorescence polarization; hits give low values. AID 588519. hit rate 0.66% among 150,000. P03300; in the data active means % elongation below about 90%; further: some results filed as inactive read as strong as hits
# Target sequence (P03300 1749-2209 limits assumed): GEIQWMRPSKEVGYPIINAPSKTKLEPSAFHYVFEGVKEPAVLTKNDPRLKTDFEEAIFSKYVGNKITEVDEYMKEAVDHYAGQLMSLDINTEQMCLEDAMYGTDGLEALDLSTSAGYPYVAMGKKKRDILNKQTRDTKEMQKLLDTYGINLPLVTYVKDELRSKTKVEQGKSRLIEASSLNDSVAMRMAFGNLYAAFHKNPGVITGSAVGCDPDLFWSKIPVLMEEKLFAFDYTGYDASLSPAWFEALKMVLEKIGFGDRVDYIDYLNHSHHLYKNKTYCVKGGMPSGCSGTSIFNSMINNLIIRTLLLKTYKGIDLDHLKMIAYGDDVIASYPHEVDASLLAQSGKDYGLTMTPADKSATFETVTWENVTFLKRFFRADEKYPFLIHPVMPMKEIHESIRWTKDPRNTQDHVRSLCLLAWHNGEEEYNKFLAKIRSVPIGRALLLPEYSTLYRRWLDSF
# PV pol inh intensity = also measured in PV pol inh; calls as there; % elongation; measured here: total intensity read-out; formula for this scale not given here;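 total fluorescence in place of polarization; lower means less elongation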
# Active calls of the source: *. An excerpt; the hit share may differ from the screen's.
# Values run as follows: PV pol inh | PV pol inh intensity
COc1ccccc1N(CC(=O)Nc1ccc2c(c1)OCO2)S(=O)(=O)c1ccc(C)cc1
  98 | 99
Cc1cc(NC(=O)CCn2c(=O)c3cccn3c3cccnc32)ccc1Br
  118 | 114
CN(Cc1ccccc1)C(=O)CSc1nc(-c2ccc(F)cc2)cc(C(F)(F)F)n1
  102 | 101
O=C(Nc1cc(-c2ccc(F)c(F)c2)no1)c1ccccc1F
  104 | 102
O=C(NCCn1cc(SCc2cccc(F)c2)c2ccccc21)c1cccc(C(F)(F)F)c1
  107 | 106
CSc1ccc(C2C(C(=O)Nc3ccccc3)=C(C)Nc3nc4ccccc4n32)cc1 (centres undefined)
  102 | 117
COCCNc1nc2c(S(=O)(=O)c3ccc(C)c(C)c3)nnn2c2ccc(Cl)cc12
  107 | 111
COc1ccc(S(=O)(=O)NCCc2nnc3ccc(SCC(=O)Nc4cc(C)cc(C)c4)nn23)cc1
  118 | 130
Cc1ccc(NC(=O)Cn2c(=O)n(-c3ccc(CC(=O)NCC4CCCO4)cc3)c(=O)c3ccccc32)cc1 (centres undefined)
  107 | 108
COc1ccc(NC(=O)CCS(=O)(=O)c2nc(-c3cccs3)cc(C(F)(F)F)n2)cc1
  107 | 108
c1ccc(C(c2cccs2)c2c[nH]c3ccccc23)cc1 (centres undefined)
  111 | 105
CCc1nc2ccc(C(=O)NCc3cccc(Br)c3)cc2nc1CC
  109 | 114
COc1cccc(-c2nc(CS(=O)(=O)CC(=O)NCc3ccc(C)cc3)c(C)o2)c1
  107 | 107
CCC(Sc1nc2nccnc2c(=O)n1Cc1ccc(OC)cc1)C(=O)NC1CCCCC1 (centres undefined)
  112 | 108
COc1ccccc1NC(=O)c1sc2nc(-c3cc4ccccc4oc3=O)[nH]c(=O)c2c1C
  102 | 87
Cc1ccc(N2CCN(c3nc4ccccc4n4nnnc34)CC2)c(C)c1
  108 | 108
COc1ccc(OC)c(S(=O)(=O)NCCc2sc(-c3ccc(C)cc3)nc2C)c1
  111 | 109
O=C(CSc1nnc(-c2ccc(Cl)cc2)o1)c1ccc([N+](=O)[O-])cc1
  107 | 107
COc1ccc(S(=O)(=O)NCCc2sc(C)nc2C)cc1F
  110 | 115
Oc1cccc(-c2nc3ncccn3c2Nc2cccc(C(F)(F)F)c2)c1
  107 | 111
COc1ccccc1Cn1cc(C(=O)c2ccccc2)c(=O)c2cc(OC)c(OC)cc21
  109 | 109
CCCCNC(=O)C1CCN(C(=O)N2CC(C)Oc3ccc(Cl)cc32)CC1 (centres undefined)
  111 | 112
COc1ccc(CNC(=O)CSc2ncc3c(n2)-c2cc(Cl)ccc2N(Cc2ccccc2)S3(=O)=O)cc1
  106 | 107
CCOC(=O)c1cccc(NC(=O)CN2C(=O)CC(C)(C)Sc3ccccc32)c1
  107 | 112
Cc1cccc(Cn2nnc(C(=O)Nc3cc(C)ccc3C)c2N)c1
  106 | 105
CC(=O)c1ccc(NS(=O)(=O)c2ccc(Br)s2)cc1
  107 | 114
CCc1ccccc1NC(=O)c1ccc(F)c(S(=O)(=O)N2CCN(c3cccc(Cl)c3)CC2)c1
  112 | 113
Cc1ccnc(NC(c2ccccc2F)c2ccc3cccnc3c2O)c1 (centres undefined)
  114 | 177
Cc1cccc2c1-c1sc(C(=O)NCc3ccccc3Cl)cc1CO2
  107 | 112
Cc1cc(Cl)ccc1NC(=O)CSc1nc2c(c(=O)[nH]1)CCC2
  112 | 113
CCCNC(=O)CCc1c(C)nc2nc(-c3cc(OC)cc(OC)c3)nn2c1C
  101 | 101
Cc1nn(-c2ccccc2)c(-n2cccc2)c1C(=O)N1CCN(c2ccccc2)CC1
  102 | 105
CCOc1ccccc1NS(=O)(=O)c1ccc2c(c1)CC(C)N2C(=O)C1CC1 (centres undefined)
  110 | 114
Cc1nc2c(C(=O)N(C)Cc3ccccc3)c[nH]n2c(=O)c1Cc1ccc(Cl)cc1
  104 | 99
CCc1cccc(C)c1Nc1c(-c2cccs2)nc2nc(C)cc(C)n12
  112 | 112
COc1ccccc1OCCCSc1nc(-c2ccc(C(C)(C)C)cc2)nc2cc(=O)[nH]n12
  108 | 110
CCCC(CCC)C(=O)Nc1cccc(-c2cn3cccnc3n2)c1
  108 | 107
CCN(C(=O)c1cc2c(=O)oc3ccc(C)cc3c2s1)c1ccccc1C
  106 | 106
O=C(NCc1ccccc1Cl)c1c2c(nc3ccccc13)C(=O)N(C1CCCCC1)C2
  104 | 106
COc1ccc(CCNC(=O)c2cnn(-c3cccc(C)c3)c2C2CCNCC2)cc1OC
  105 | 107
CC(C)c1ccc(Nc2c(-c3ccccc3O)nc3cnccn23)cc1
  106 | 111
CCN(CCCNC(=O)c1cc2c(=O)[nH]c3ccccc3c2s1)c1ccccc1
  108 | 108
Cc1oc2cc3oc(=O)c(CC(=O)NCc4ccccc4)c(C)c3cc2c1C
  109 | 111
CCCCOc1ccc(C(=O)N2CCN(CCc3ccncc3)CC2)cc1
  101 | 97
COc1ccc(-c2cc3nc(-c4ccc(C)cc4)cc(C(F)(F)F)n3n2)cc1
  105 | 102
CCOC(=O)c1c(NC(=O)CS(=O)(=O)c2ccc(Cl)cc2)sc2c1CCCC2
  113 | 112
CCOC(=O)C1(C)C=C(Nc2ccc(C(N)=O)cc2)C(=O)N1c1ccccc1 (centres undefined)
  115 | 118
O=C(CNS(=O)(=O)c1cccs1)N1CCN(c2ccccc2Cl)CC1
  108 | 108
CCCOc1ccc(-c2cccc(NS(=O)(=O)c3ccc(CC)cc3)c2)nn1
  105 | 107
N#Cc1cc2c(nc1SCC(=O)Nc1ccc(F)c(Cl)c1)C1CCN2CC1
  102 | 105
COc1cccc(C(=O)N2CC(=O)Nc3ccc(C)cc3C2c2ccc(F)cc2)c1OC (centres undefined)
  102 | 99
CCc1cccc(NC(=O)c2cn3c4c(ccc(Cl)c4c2=O)OC(C)C3)c1 (centres undefined)
  106 | 113
COc1cccc(C(=O)c2c(N)c(-c3nc(-c4ccccc4)cs3)c3ccccn23)c1
  109 | 109
CCC(=O)N1c2ccc(S(=O)(=O)CCC(=O)Nc3ccc(OC)cc3OC)cc2CC1C (centres undefined)
  111 | 111
COc1cc(C2c3c(oc4cc(C)c(C)cc4c3=O)C(=O)N2CCCN2CCOCC2)ccc1O (centres undefined)
  104 | 108
CC(C)c1ccc(NC(=O)c2ccc(F)c(S(=O)(=O)N3CCCCCC3)c2)cc1
  113 | 115
Cc1ccc(Cn2ccnc2SCC(=O)Nc2ccc3c(c2)OCO3)cc1
  103 | 108
CCOc1ccc(NC(=O)CCSc2nc(-c3ccc4c(c3)OCO4)cc(C(F)(F)F)n2)cc1
  105 | 109
O=C(CCC(=O)N1CC2CCCN2c2ccccc21)NCc1ccccc1 (centres undefined)
  103 | 108
COc1ccc(C(=O)Nc2ccccc2-c2nc(-c3ccc(OC)cc3)no2)cc1
  108 | 111

# Continued.
# Values run as follows: PV pol inh | PV pol inh intensity
O=S(=O)(NCCc1csc2nc(-c3ccccc3)nn12)c1ccc(Oc2ccccc2)cc1
  104 | 108
COc1ccc(C(=O)c2cn(CC(=O)Nc3cc(C)ccc3C)c3nc(C)ccc3c2=O)cc1
  120 | 109
CCOc1ccc(NCc2cccn2-c2nnc(N3CCC(C(=O)NCCc4ccc(OCC)c(OCC)c4)CC3)s2)cc1
  108 | 110
O=C(NCCc1ccc(Cl)cc1)c1cc(-c2ccc(Cl)cc2)n[nH]1
  108 | 109
O=c1c2cc3c(cc2n(Cc2cccc(F)c2)c(=O)n1Cc1nc(-c2ccccc2)no1)OCO3
  106 | 107
CCc1nccn1S(=O)(=O)c1cc(Br)ccc1Br
  99 | 98
COCc1cc(C)nc2c1C(=O)NC(c1ccc(C)cc1)N2Cc1ccccc1 (centres undefined)
  101 | 110
COc1cc(NC(=O)CN2C(=O)c3ccccc3Sc3ccc(C(=O)N4CCCC4)cc32)cc(OC)c1
  113 | 113
COc1ccc2c(c1)Cc1sc(NC(=O)c3cccc(C)c3)nc1-2
  56* | 63*
COc1ccc(OC)c(/C=C/c2nc3ccccc3c(=O)n2-c2ccc(F)c(Cl)c2)c1
  112 | 109
COc1ccc(-n2c(=O)c3c4c(sc3n(Cc3c(F)cccc3Cl)c2=O)CN(C(C)=O)CC4)cc1OC
  107 | 106
Cc1ccc(-c2nc3ccccn3c2Nc2ccc3c(c2)OCCO3)o1
  107 | 109
Cc1ccc(C(=O)Nc2ccccc2)cc1S(=O)(=O)N1CCCC1
  106 | 110
Cc1ccc(CNC(=O)C(=O)NCC(c2cccs2)S(=O)(=O)c2cccs2)cc1 (centres undefined)
  106 | 109
CC1=C(C(=O)N2CCN(c3ccccc3)CC2)C2(CCCCC2)OC1=O
  106 | 110
CCCN(CCC)CCNC(=O)CN1C(=O)COc2ccc(S(=O)(=O)N3CCC(C)CC3)cc21
  106 | 110
COc1ccccc1CNC(=O)c1oc2c(c1C)-c1nn(Cc3ccc(Cl)cc3)cc1CC2
  104 | 110
CCc1ccccc1NC(=O)Cn1nnc(-c2nc(-c3ccncc3)no2)c1N
  109 | 113
CC(C)(C)c1ccc(-c2noc(CCC(=O)Nc3cccc(Cl)c3)n2)cc1
  107 | 110
CCc1ccccc1NC(=O)CSc1nc2ncccc2o1
  101 | 105
CCOc1cc(C(=O)NCc2ccc3c(c2)CCN3C(=O)c2ccc(F)cc2)cc(OCC)c1OCC
  105 | 100
CCN(CCCNC(=O)Cn1ncc2c([nH]c3ccc(C)cc32)c1=O)Cc1ccccc1
  107 | 103
O=C(CCn1c(=O)c2ccccc2n(CC(=O)Nc2cccc(F)c2)c1=O)NCCc1ccccc1
  113 | 112
Cc1cc(-n2c(SCc3ccccc3F)nc3[nH]ncc3c2=O)ccc1Cl
  110 | 105
Cc1c(C(=O)Nc2ccc(F)cc2)sc2nc[nH]c(=O)c12
  105 | 104
CCOC(=O)Cc1ccc(NC(=O)NCc2cccn2Cc2ccccc2)cc1
  106 | 110
COc1ccccc1CN1C(=O)CN(C2CCCCCC2)C(=O)C1c1ccc(C)cc1 (centres undefined)
  115 | 112
COc1ccc(OC)c(NC(=O)c2ccc3c(SCC(=O)O)c4c(nc3c2)CCCC4)c1
  103 | 104
CCOc1ccc(CCNC(=O)CCCn2c(=O)c3cccn3c3ccccc32)cc1
  108 | 114
CCOc1ccc(-c2nc(C#N)c(NCCCOC)o2)cc1
  105 | 96
COc1ccccc1CNC(=O)CCn1c(=O)c2ccccc2n(CC(=O)Nc2ccc(Br)cc2F)c1=O
  105 | 105
CC(C)(C)OC(=O)N1CCC(c2c(C(=O)N3CCN(C(=O)c4ccco4)CC3)cnn2-c2cccc(Cl)c2)CC1
  97 | 105
CCCc1nn2c(=O)cc(COC(=O)c3cccc(NC(=O)CCc4ccccc4)c3)nc2s1
  106 | 93
Cc1ccc(OCc2ccc(-c3nc(C#N)c(N4CCC(C)CC4)o3)o2)cc1
  112 | 113
CCN(CC)c1nc2c(S(=O)(=O)c3ccc(C)cc3)nnn2c2ccsc12
  104 | 105
Cc1cc(C)c(Cn2c(C(O)c3ccccc3)nc3ccccc32)c(C)c1 (centres undefined)
  111 | 106
COc1ccc(C2=C(C)C(N3CCC(C(=O)NCc4ccco4)CC3)=NS2(=O)=O)cc1
  107 | 107
COc1ccc(C2C(C(N)=O)=C(C)Nc3nc(CCCO)nn32)c(OC)c1 (centres undefined)
  105 | 108
CCc1ccc(NC(=O)C(NS(=O)(=O)c2cccc3nsnc23)c2ccccc2)cc1 (centres undefined)
  109 | 110
Cc1ccc(NC(=O)CN2C(=O)C(C)(C)c3ccccc32)cc1
  108 | 108

# Single records, from the list above. Values in the order: PV pol inh	PV pol inh intensity
# Record of O=C(CCn1c(=O)c2ccccc2n(CC(=O)Nc2cccc(F)c2)c1=O)NCCc1ccccc1 : 113	112
# Record of Cc1cc(C)c(Cn2c(C(O)c3ccccc3)nc3ccccc32)c(C)c1 (centres undefined) : 111	106
# Record of Cc1ccc(-c2nc3ccccn3c2Nc2ccc3c(c2)OCCO3)o1 : 107	109

# Sorted by formula weight (lowest first): part of the list above.
# Values run as follows: PV pol inh | PV pol inh intensity
COc1ccc(C2C(C(N)=O)=C(C)Nc3nc(CCCO)nn32)c(OC)c1 (centres undefined)
  105 | 108
CCN(CCCNC(=O)Cn1ncc2c([nH]c3ccc(C)cc32)c1=O)Cc1ccccc1
  107 | 103
CCCc1nn2c(=O)cc(COC(=O)c3cccc(NC(=O)CCc4ccccc4)c3)nc2s1
  106 | 93

# The main list resumes; the 4 compounds before the break are reprinted first.
# Values run as follows: PV pol inh | PV pol inh intensity
COc1ccc(C2=C(C)C(N3CCC(C(=O)NCc4ccco4)CC3)=NS2(=O)=O)cc1
  107 | 107
COc1ccc(C2C(C(N)=O)=C(C)Nc3nc(CCCO)nn32)c(OC)c1 (centres undefined)
  105 | 108
CCc1ccc(NC(=O)C(NS(=O)(=O)c2cccc3nsnc23)c2ccccc2)cc1 (centres undefined)
  109 | 110
Cc1ccc(NC(=O)CN2C(=O)C(C)(C)c3ccccc32)cc1
  108 | 108
CC(C)CCNC(=O)[C@@H](c1ccccc1)N1Cc2ccccc2C1=O
  101 | 106
CCN(CC)C(=O)C1=CC(c2ccc3c(c2)OCO3)=NS(=O)(=O)N1C
  107 | 112
O=C(NCCN1CCN(c2ccccc2F)CC1)C1COc2ccccc2C1 (centres undefined)
  105 | 109
CCOc1ccc(C(c2c(C)[nH]n(-c3ccccc3)c2=O)c2c(C)[nH]n(-c3ccccc3)c2=O)cc1OC
  101 | 103
COc1ccc(CCNC(=O)c2ccc3c(c2)CCN3S(=O)(=O)c2ccccc2)cc1OC
  102 | 97
COc1cccc(CSc2nc3ccccc3c3nc(CCn4c(C)nc5ccccc54)nn23)c1
  112 | 112
CCn1c2c(c(=O)n3ncc(C(=O)N4CCN(c5ccccc5)CC4)c13)CN(Cc1ccc(OC)cc1)CC2
  108 | 95
Cn1c(=O)oc2cc(S(=O)(=O)NCCC(=O)Nc3ccc(F)c(Cl)c3)ccc21
  107 | 109
COc1ccc(N2CCN(C(=O)c3nn(-c4ccc(C)cc4)c(=O)n(C)c3=O)CC2)cc1
  98 | 101
Cc1cc2nc(-c3ccc(OCc4ccc(F)cc4)cc3)cc(C(F)(F)F)n2n1
  107 | 109
CCOc1ccc(CCNC(=O)c2ccc(-c3nc(CSc4ccccc4)c(C)o3)cc2)cc1
  111 | 104
COc1ccccc1CCNC(=O)Cc1ccc(NC(=O)N2CCSc3ncccc32)cc1
  105 | 102
